# Compound activity deposited in PubChem by several laboratories.
# TbHK1 inh: blocks Trypanosoma brucei hexokinase 1 activity. inhibition, % at 10 µM. 220,000 tested, 0.11% active. recombinant TbHK1, G6PDH-coupled NADH A340;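 active = inhibition of 50% or more in the single-dose primary screen; inactive = inhibition below 50%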
# CHOP inh: inhibitors of CHOP induction in ER stress response; CHO-K1 CHOP-promoter luciferase, tunicamycin-induced, 15-18 h; inhibition, % at 10 µM; 220,000 tested, 3.8% active;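 active = compounds that reduced the stress-induced luciferase reporter signal by more than about 70% of percent inhibition, limit read from the data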;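 note: 0% = tunicamycin plus vehicle and 100% = wells without tunicamycin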
# TNF death inh: TNF-alpha cell death inhibition in Jurkat FADD-/- cells; Jurkat FADD-/- TNF necroptosis rescue, ATP luminescence, 24 h; 0 = TNF only, 100 = no-TNF cells; activation (protection from cell death), % at 10 µM; 220,000 tested, 0.068% active; AID 463075;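 active = activation, meaning protection from cell death, of at least 50% relative to plate controls; inactive = activation below 50%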;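 note: necroptosis triggered by 40 ng/mL TNF-alpha added together with compound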
# Wee1 degr inh: blocks degradation of human Wee1 kinase; P30291; HeLa Luc-Wee1K328M stability, luciferase luminescence; 100% = proteasome inhibitor MG132 effect; reporter increase, % at 5 µM; 220,000 tested, 1.2% active; AID 1321;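 active = activation above the mean of all tested compounds plus 3 SD, set per screening run, cut at about 8.8% in these data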;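 note: cells exposed to compound for 20 h before luminescence read; 0% = DMSO alone and 100% = MG132 at 30 µM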
# Target sequence (P30291 whole entry K328M): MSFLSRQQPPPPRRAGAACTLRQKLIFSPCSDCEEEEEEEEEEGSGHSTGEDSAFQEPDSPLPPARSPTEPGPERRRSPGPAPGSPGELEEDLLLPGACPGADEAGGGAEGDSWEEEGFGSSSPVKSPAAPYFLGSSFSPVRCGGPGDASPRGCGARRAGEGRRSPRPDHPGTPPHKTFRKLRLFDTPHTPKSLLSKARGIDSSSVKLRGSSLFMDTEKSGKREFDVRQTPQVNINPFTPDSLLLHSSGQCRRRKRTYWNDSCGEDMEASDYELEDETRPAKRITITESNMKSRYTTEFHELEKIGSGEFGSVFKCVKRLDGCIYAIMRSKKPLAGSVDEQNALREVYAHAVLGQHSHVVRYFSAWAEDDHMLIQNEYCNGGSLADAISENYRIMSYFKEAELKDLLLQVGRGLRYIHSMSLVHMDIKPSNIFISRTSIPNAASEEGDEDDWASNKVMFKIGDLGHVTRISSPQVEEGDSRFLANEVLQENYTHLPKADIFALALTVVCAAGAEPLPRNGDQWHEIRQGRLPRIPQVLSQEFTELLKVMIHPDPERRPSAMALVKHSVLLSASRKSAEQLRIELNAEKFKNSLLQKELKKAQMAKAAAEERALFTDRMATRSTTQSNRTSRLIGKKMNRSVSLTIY
# zVAD death inh: L929 zVAD cell death inhibition. AID 1377. viability rescue, % at 10 µM. 220,000 tested, 0.38% active. L929 zVAD necroptosis rescue, ATP luminescence, 24 h; with zVAD 60 µM;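 active = activation, scaled between plate controls, above about 75%, limit read from the data; inactive = activation under that limit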;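 note: 0% = zVAD with DMSO and 100% = DMSO alone without zVAD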
# PGE2 EP2 inh: inhibitors of human EP2 prostaglandin E2 receptor; 260,000 tested, 0.52% active; inhibition, % at 25 µM; AID 1422; C6 glioma cells expressing human EP2, cAMP TR-FRET; cells stimulated with saturating PGE2;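 active = percent inhibition above 40 after rounding to a whole number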;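 note: rat C6 glioma host cells with rolipram phosphodiesterase inhibitor present; the protocol text gives 20 µM as final concentration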
# PPC-1+TRAIL kill: kills PPC-1 cancer cells in the presence of TRAIL | 220,000 tested, 0.41% active | cell killing (% activity), % at 4 µM | PPC-1 cells + TRAIL, ATPLite viability luminescence;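 active = cell killing above 50% in the first pass at 4 µM, then a duplicate retest at 5 µM averaging 50% or more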;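 note: plate controls were cells with TRAIL plus DMSO for no effect and medium-only wells lacking cells for full effect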
# An asterisk follows results filed as active; x = not tested or not shown; & = joins results of further samples. Not all compounds are listed, so the mix of outcomes need not match the whole.
SMILES,TbHK1 inh,CHOP inh,TNF death inh,Wee1 degr inh,zVAD death inh,PGE2 EP2 inh,PPC-1+TRAIL kill
CCNC(=O)CC1C(=O)N(c2ccc(F)cc2)C(=O)N1CCC(C)C (configuration not stated),6,9,0.2,4,-0.2,10,11
O=C(CSc1nnc(-c2ccco2)n1-c1ccccc1)NCc1ccco1,1,-3,-0.7,4,-0.3,5,16
Cc1ccc(OCc2nnc(SCC(=O)NCc3ccco3)n2C)cc1,0,14,-0.1,-2,0.3,6,6
Cc1ccc(-c2nc(CN(C)C3CCOCC3)c(C)o2)s1,-3,-9,0.9,-4,-0.3,7,15
C#CCNC(=O)C1CCN(c2ccc(S(=O)(=O)N3CCOCC3)cc2Cl)CC1,1,-1,0.2,-1,0.6,8,-15
O=[N+]([O-])c1ccccc1/C=N/n1c(COc2ccccc2)n[nH]c1=S,9,16,-3.2,1,0.5,x,-3
Cc1ccc(NC(=O)CSc2nc(-c3ccco3)cc(C(F)(F)F)n2)cc1C,5,68,-13,0,-0.3,9&3,-4
COc1ccc(C(=O)n2nc(-c3ccco3)nc2N)cc1OC,-3,22,-3.3,0,0.9,8,-8
CCCCN1CNC(=S)N(c2ccccc2OCC)C1,5,16,0.5,3,-0.9,3,-3
C=CCn1c(CCNC(=O)c2cccs2)nnc1SCC(=O)Nc1cccc(Cl)c1C,-2,10,1.3,-1,-0.3,9,2
CCC1(C)Cc2c(sc(NC(=S)NC(=O)c3ccccc3)c2C#N)CO1 (configuration not stated),-4,42,3.1,1,2.2,6,22
Cc1nc(-c2cccnc2)sc1C(=O)Nc1ccc(C(F)(F)F)cc1,-3,44,0.2,3,3.9,7,23
COc1ccccc1NC(=O)C1=C(C)Nc2nnnn2C1c1cccc(Br)c1 (configuration not stated),5,14,-2.9,0,-0.2,8,-10
COc1ccc(-c2cnnn2-c2ccc(NC(=O)/C=C/c3ccc(OC)c(OC)c3)cc2)cc1,-17,19,1.2,-1,-1.2,5,13
COc1ccc(C2=NOC(C(=O)Nc3ccc(C(C)=O)cc3)C2)cc1OC (configuration not stated),7,-49,1.2,-3,0.4,6,8

# Given tab-delimited: part of the list above
SMILES	TbHK1 inh	CHOP inh	TNF death inh	Wee1 degr inh	zVAD death inh	PGE2 EP2 inh	PPC-1+TRAIL kill
COc1ccc(C(=O)n2nc(-c3ccco3)nc2N)cc1OC	-3	22	-3.3	0	0.9	8	-8
COc1ccc(-c2cnnn2-c2ccc(NC(=O)/C=C/c3ccc(OC)c(OC)c3)cc2)cc1	-17	19	1.2	-1	-1.2	5	13
COc1ccccc1NC(=O)C1=C(C)Nc2nnnn2C1c1cccc(Br)c1 (configuration not stated)	5	14	-2.9	0	-0.2	8	-10

# Next section.
SMILES,TbHK1 inh,CHOP inh,TNF death inh,Wee1 degr inh,zVAD death inh,PGE2 EP2 inh,PPC-1+TRAIL kill
Cc1cccc(N(CC(=O)N2CCN(c3ccccc3F)CC2)S(C)(=O)=O)c1,3,36,1.0,-2,1.0,6,5
Cc1ccc(NC(=S)Nc2cc(-c3ccccc3)[nH]n2)cc1Cl,-4,84*,2.8,0,5.5,8,-22
COc1ccc(N/C(N)=N/c2nc(CSc3ccc(Cl)cc3)cc(=O)[nH]2)cc1,20,27,-2.9,-1,0.5,x,2
COc1ccc(/C(O)=C2/C(=O)C(=O)N(CCCC(=O)O)C2c2ccc(OC)cc2)cc1 (configuration not stated),10,5,0.6,-3,-0.3,x,9
CCC(=O)Nc1cccc(NC(=O)COc2ccc(OC)cc2)c1,0,3,-0.6,-1,-0.3,16,45
NC(=O)C(c1ccc(Cl)cc1)c1ccc(Sc2ccccc2)nn1 (configuration not stated),0,13,5.1,-1,-0.1,26,3
CCn1c(CNC(=O)c2ccc(OC)cc2)nnc1SCC(=O)c1ccccc1,2,2,-1.7,-2,0.0,16,3
CC1=C(C(=O)Nc2cccnc2)C(c2ccncc2)n2nnnc2N1 (configuration not stated),-2,40,-0.3,3,0.0,4,x
O=c1c(/C=N/O)c(Nc2ccccc2)nc2ccccn12,-29,12,-6.2,1,1.1,7,28
CCN(CC)S(=O)(=O)c1cc(C(=O)Oc2cccc(-c3cnc4ccccc4n3)c2)ccc1OC,-29,4,3.3,0,2.4,20,-18
Cc1cc2oc(=O)cc(CN3CCN(S(=O)(=O)c4cccs4)CC3)c2cc1C,33,28,1.5,-1,0.4,7,6
CN(C)c1oc(-c2ccccc2[N+](=O)[O-])nc1C#N,-9,18,-18,2,-0.4,1,22
Cc1ccc(SCC(=O)Nc2ccc(S(N)(=O)=O)cc2)cc1,1,-4,1.9,-4,1.9,3,14
O=C1C2ON(c3ccccc3)C(c3ccccn3)C2C(=O)N1c1ccc(Br)cc1 (configuration not stated),4,-13,-4.5,-2,-0.4,7,3
COCCN(CCOC)S(=O)(=O)c1ccc(C(=O)NCCCN2CCOCC2)cc1,1,0,1.7,-1,2.2,-3,18

# By substructure: the compounds so far with two or more sulfur atoms
SMILES,TbHK1 inh,CHOP inh,TNF death inh,Wee1 degr inh,zVAD death inh,PGE2 EP2 inh,PPC-1+TRAIL kill
C=CCn1c(CCNC(=O)c2cccs2)nnc1SCC(=O)Nc1cccc(Cl)c1C,-2,10,1.3,-1,-0.3,9,2
CCC1(C)Cc2c(sc(NC(=S)NC(=O)c3ccccc3)c2C#N)CO1 (configuration not stated),-4,42,3.1,1,2.2,6,22
Cc1cc2oc(=O)cc(CN3CCN(S(=O)(=O)c4cccs4)CC3)c2cc1C,33,28,1.5,-1,0.4,7,6
Cc1ccc(SCC(=O)Nc2ccc(S(N)(=O)=O)cc2)cc1,1,-4,1.9,-4,1.9,3,14

# 4 records picked at random from those above, as already listed:
SMILES,TbHK1 inh,CHOP inh,TNF death inh,Wee1 degr inh,zVAD death inh,PGE2 EP2 inh,PPC-1+TRAIL kill
COCCN(CCOC)S(=O)(=O)c1ccc(C(=O)NCCCN2CCOCC2)cc1,1,0,1.7,-1,2.2,-3,18
Cc1cc2oc(=O)cc(CN3CCN(S(=O)(=O)c4cccs4)CC3)c2cc1C,33,28,1.5,-1,0.4,7,6
Cc1ccc(NC(=S)Nc2cc(-c3ccccc3)[nH]n2)cc1Cl,-4,84*,2.8,0,5.5,8,-22
Cc1cccc(N(CC(=O)N2CCN(c3ccccc3F)CC2)S(C)(=O)=O)c1,3,36,1.0,-2,1.0,6,5

# More structures follow.
SMILES,TbHK1 inh,CHOP inh,TNF death inh,Wee1 degr inh,zVAD death inh,PGE2 EP2 inh,PPC-1+TRAIL kill
COC(=O)c1nc(NC(=O)c2ccc(F)cc2)n[nH]1,-5,9,-1.2,1,2.2,6,4
CCOC(=O)c1c(CC(C)C)csc1N,0,44,0.4,1,1.3,8,5
COc1ccc(NC(=O)COC(=O)c2cccc(S(=O)(=O)N(C)C)c2)cc1,4,12,0.3,3,4.7,8,12
CCOC(=O)c1sc(Nc2nc3ccc(OC)cc3s2)cc1C,-23,32,0.5,-1,-0.9,8,-10
O=C(Oc1cc(=O)n2ccccc2n1)c1ccccc1,-2,26,1.6,-1,0.1,2,-10
